RGS4 inh: inhibitors of human RGS4 | P49798 | B-score at 10 µM | HEK293 M3R/RGS4 inducible, Fluo-4 calcium flux; hits give high values; triggered by carbachol at its EC20 | actives 0.45% (n = 310,000);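 active = B-score, a plate-corrected calcium signal, over three deviations above library mean, with baseline fluorescence within five deviations of library mean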;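 also: RGS4 expression induced by doxycycline in cells with stable M3 receptor; B-score is computed from the integrated fluorescence ratio over baseline after carbachol; higher B-score means a larger calcium signal and so more RGS4 inhibition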
Target sequence (P49798 whole entry, looked up): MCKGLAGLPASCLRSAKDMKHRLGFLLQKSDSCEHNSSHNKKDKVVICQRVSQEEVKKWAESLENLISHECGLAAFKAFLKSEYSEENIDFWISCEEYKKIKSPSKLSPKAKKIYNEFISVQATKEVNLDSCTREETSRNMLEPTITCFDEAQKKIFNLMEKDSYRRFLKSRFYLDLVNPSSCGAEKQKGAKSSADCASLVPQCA
KCNK3 block: human KCNK3 channel inhibition, primary screen; actives 0.84% (n = 340,000); B-score at 10 µM; CHO-KCNK3 thallium flux, FluxOR fluorescence; hits give low values; AID 602410;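 active = B-score under library mean minus 4 SD, starting fluorescence ratio at most library mean plus 5 SD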;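 also: more negative B-score means stronger inhibition of thallium flux through KCNK3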
RGS4 act: potentiators or activators of RGS4; B-score at 10 µM; actives 0.92% (n = 310,000); HEK293 M3R/inducible RGS4, carbachol calcium flux Fluo4; hits give low values;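 active = B-score of the integrated calcium signal more than 4 SD below the library mean, with starting fluorescence not abnormally high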;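 also: negative B-score means reduced calcium response which marks RGS4 activation or potentiation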
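Test system: HEK293 cells with stable M3R and inducible RGS4; also added: carbachol at ECmax as muscarinic agonist stimulus; schedule: dye loading 30 min 37 °C, buffer rest 30 min RT; technique: kinetic calcium fluorescence imaging with Fluo4-AM dye, 2 µM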
SKKanGAS inh: inhibitors of SKKanGAS S. pyogenes growth in kanamycin (SK-promoter or general growth effect); inhibition, % at 7.5 µM; AID 1662; BacTiter-Glo, 6 h; actives 1.3% (n = 300,000);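 active = mean replicate score, as percent of positive control median, at least 50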;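 also: strain carries kanamycin resistance gene driven by streptokinase promoter and grows in 40 µg/ml kanamycin; loss of luminescence reflects streptokinase promoter inhibition or plain growth inhibition; 0% = median of DMSO wells and 100% = positive control at its reference dose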
KCNQ1 inh: inhibitors of human KCNQ1 potassium channel. P51787. CHO-K1 KCNQ1, FluxOR thallium flux fluorescence; hits give high values. B-score at 10 µM. actives 1.3% (n = 310,000);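 active = compounds whose thallium flux B-score, printed positive for inhibition, exceeds three library SD while starting fluorescence stays within three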;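 also: channel opened by potassium depolarization with thallium stimulus after 20 min compound exposure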
TMEM16A act: activators or potentiators of mouse TMEM16A chloride channel; HEK293 TMEM16A/YFP-H148Q/I152L, iodide quench fluorescence; hits give low values; actives 0.3% (n = 340,000); Q8BHY3; B-score at 10 µM;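 active = fluorescence-ratio B-score plate-corrected deviation score at least 3 library SD below zero, with starting fluorescence score within 5 deviations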;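 also: channel opened by trigger with iodide after compound preincubation; score built on the fluorescence ratio of max minus min over baseline; more negative score means more quench and so TMEM16A activation or potentiation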
ANO1 block: inhibitors of mouse TMEM16A calcium-activated chloride channel. HEK293 TMEM16A/YFP iodide influx fluorescence, ionomycin. normalized B-score (activity score, 25-100; higher = stronger inhibition) at 10 µM. actives 1.2% (n = 310,000). AID 588511;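 active = ratio plate-corrected score three or more library SD toward inhibition, starting fluorescence score within five deviations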;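 also: score derived from kinetic fluorescence span divided by baseline fluorescence per well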
KCNK9 block: inhibitors of human KCNK9 two-pore domain potassium channel. Q9NPC2. HEK293 KCNK9, FluxOR thallium flux fluorescence; hits give low values. B-score at 10 µM. actives 1.2% (n = 310,000). AID 488922;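 active = ratio B-score over 3 SD below the library mean, with starting fluorescence within 5 SD of its mean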;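 also: negative B-score means less thallium flux so channel inhibition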
Target sequence (Q9NPC2 whole entry, looked up, the tested form may be a part): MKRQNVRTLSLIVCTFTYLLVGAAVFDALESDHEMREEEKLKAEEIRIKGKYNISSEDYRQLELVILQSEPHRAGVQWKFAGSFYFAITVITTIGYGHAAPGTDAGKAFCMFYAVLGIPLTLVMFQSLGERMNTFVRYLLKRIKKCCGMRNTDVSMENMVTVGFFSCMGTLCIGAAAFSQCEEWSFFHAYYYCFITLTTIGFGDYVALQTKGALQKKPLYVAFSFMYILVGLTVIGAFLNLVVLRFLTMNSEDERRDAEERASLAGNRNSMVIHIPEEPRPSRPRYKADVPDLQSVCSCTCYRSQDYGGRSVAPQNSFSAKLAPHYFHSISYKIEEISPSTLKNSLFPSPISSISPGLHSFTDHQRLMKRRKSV
KCNQ1 act: human KCNQ1 channel potentiation or activation; B-score at 10 µM; CHO-K1 KCNQ1, thallium flux FluxOR fluorescence; hits give high values; AID 2648; actives 0.35% (n = 310,000);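 active = fluorescence ratio B-score, a plate-corrected score, at least three library SD, with initial intensity B-score within 5 SD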
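System: CHO-K1 cells stably expressing KCNQ1 / Medium: assay buffer for compound exposure, DMSO matched across wells / Reagent: thallium- and potassium-containing depolarizing buffer / Compound: one concentration, matched DMSO / Incubation: 20 min compound pretreatment at room temperature / Measured by: kinetic FluxOR fluorescence, 10 s baseline plus 110 s post-stimulus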
HDAC3 inh: blocks human histone deacetylase 3; O15379; recombinant HDAC3, fluorogenic peptide/trypsin coupled, fluorescence; inhibition, % at 8.3 µM; actives 0.15% (n = 320,000); AID 2718; in the data active = inhibition above about 26%, passing the limit was not always enough
Starred values were filed as active, the others as inactive; & = joins results of further samples.

Results for CC(=O)OC[C@H]1O[C@@H](n2ncc(=O)[nH]c2=O)[C@H](OC(C)=O)[C@@H]1OC(C)=O ?
RGS4 inh: inactive; RGS4 act: inactive; SKKanGAS inh: -4; KCNQ1 inh: inactive; ANO1 block: inactive; KCNK9 block: inactive; KCNQ1 act: inactive; HDAC3 inh: -1

How did CCOc1cc(C2C3=C(CC(C)(C)CC3=O)N(C)C3=C2C(=O)CC(C)(C)C3)ccc1O do in these assays?
RGS4 inh: inactive; KCNK3 block: inactive; RGS4 act: inactive; SKKanGAS inh: -4; KCNQ1 inh: inactive; TMEM16A act: inactive; ANO1 block: inactive; KCNK9 block: inactive; KCNQ1 act: inactive; HDAC3 inh: -2

What do the screens show for `OC1C(O)C(O)C(O)C(O)C1O` (stereo not given)?
RGS4 inh: inactive; KCNK3 block: inactive; RGS4 act: inactive; SKKanGAS inh: -4&-5&1; KCNQ1 inh: inactive; TMEM16A act: inactive; ANO1 block: inactive; KCNK9 block: inactive; KCNQ1 act: inactive; HDAC3 inh: -2&3&2

Results for Cc1ccc(CNC(=O)C2CC3Cn4c(nc5cc6ccccc6cc54)C3N2C)o1 (stereo not given) ?
RGS4 inh: inactive; KCNK3 block: inactive; RGS4 act: inactive; SKKanGAS inh: 12; KCNQ1 inh: inactive; TMEM16A act: inactive; ANO1 block: inactive; KCNK9 block: inactive; KCNQ1 act: inactive; HDAC3 inh: -4

What do the screens show for `COc1ccc(C(=O)Sc2nncc3ccccc23)cc1`?
RGS4 inh: inactive; KCNK3 block: inactive; RGS4 act: inactive; SKKanGAS inh: -6; KCNQ1 inh: inactive; TMEM16A act: inactive; ANO1 block: inactive; KCNK9 block: inactive; KCNQ1 act: inactive; HDAC3 inh: 2

Results for Oc1c(Cl)cc(Cl)c(Cl)c1Cc1c(O)c(Cl)cc(Cl)c1Cl ?
RGS4 inh: inactive; KCNK3 block: inactive; RGS4 act: inactive; SKKanGAS inh: 109*; KCNQ1 inh: inactive; TMEM16A act: -5.5*; ANO1 block: 100*; KCNK9 block: inactive; KCNQ1 act: 87*; HDAC3 inh: -5

How did CCOC(=O)Nc1ccc(Cc2ccncc2)cc1 do in these assays?
RGS4 inh: inactive; KCNK3 block: inactive; RGS4 act: inactive; SKKanGAS inh: 3; KCNQ1 inh: inactive; TMEM16A act: inactive; ANO1 block: inactive; KCNK9 block: inactive; KCNQ1 act: inactive; HDAC3 inh: -3

How did Cc1ccc(-c2noc(-c3ccoc3C)n2)cc1 do in these assays?
RGS4 inh: inactive; KCNK3 block: inactive; RGS4 act: inactive; SKKanGAS inh: 9; KCNQ1 inh: inactive; TMEM16A act: inactive; ANO1 block: inactive; KCNK9 block: inactive; KCNQ1 act: inactive; HDAC3 inh: 3

What do the screens show for `C[N+]1(C)CCC(OC(=O)C(O)(c2ccccc2)C2CCCC2)C1` (stereo not given)?
RGS4 inh: inactive; KCNK3 block: inactive; RGS4 act: inactive; SKKanGAS inh: 0; KCNQ1 inh: inactive; TMEM16A act: inactive; ANO1 block: inactive; KCNK9 block: inactive; KCNQ1 act: inactive; HDAC3 inh: 1

How did CCOC(=O)CN1C(=O)N[C@@H](c2cccc(C(F)(F)F)c2)C(C(=O)OC)=C1C do in these assays?
RGS4 inh: inactive; KCNK3 block: inactive; RGS4 act: inactive; SKKanGAS inh: -3; KCNQ1 inh: inactive; TMEM16A act: inactive; ANO1 block: inactive; KCNK9 block: inactive; KCNQ1 act: inactive; HDAC3 inh: -6

How did COc1ccc(OC(=O)CCc2c[nH]c3ccccc23)cc1 do in these assays?
RGS4 inh: inactive; KCNK3 block: inactive; RGS4 act: inactive; SKKanGAS inh: 0; KCNQ1 inh: inactive; TMEM16A act: inactive; ANO1 block: inactive; KCNK9 block: inactive; KCNQ1 act: inactive; HDAC3 inh: 5

What do the screens show for `NC(=O)C1CCCCc2c1[nH]c1ccc(Cl)cc21` (stereo not given)?
RGS4 inh: inactive; KCNK3 block: inactive; RGS4 act: inactive; SKKanGAS inh: 1; KCNQ1 inh: inactive; TMEM16A act: inactive; ANO1 block: inactive; KCNK9 block: inactive; KCNQ1 act: inactive; HDAC3 inh: 4

Results for CC(C)(C)C(O)/C=C/c1ccc2c(c1)OCO2 (stereo not given) ?
RGS4 inh: inactive; RGS4 act: inactive; SKKanGAS inh: -4; KCNQ1 inh: inactive; ANO1 block: inactive; KCNK9 block: inactive; KCNQ1 act: inactive; HDAC3 inh: 6

What do the screens show for `Cc1nc(NCC2CCCO2)[nH]c(=O)c1CCC(C)C` (stereo not given)?
RGS4 inh: inactive; KCNK3 block: inactive; RGS4 act: inactive; SKKanGAS inh: 4; KCNQ1 inh: inactive; TMEM16A act: inactive; ANO1 block: inactive; KCNK9 block: inactive; KCNQ1 act: inactive; HDAC3 inh: 5

Results for Nc1ccc(O)c(C(=O)O)c1 ?
RGS4 inh: inactive; RGS4 act: inactive; SKKanGAS inh: 2; KCNQ1 inh: inactive; ANO1 block: inactive; KCNK9 block: inactive; KCNQ1 act: inactive; HDAC3 inh: 0

Results for Cn1c(=O)c2c(ncn2CCOc2ccc(Br)cc2)n(C)c1=O ?
RGS4 inh: inactive; KCNK3 block: inactive; RGS4 act: inactive; SKKanGAS inh: 1; KCNQ1 inh: inactive; TMEM16A act: inactive; ANO1 block: inactive; KCNK9 block: inactive; KCNQ1 act: inactive; HDAC3 inh: -2

Arranged by SMILES length (largest number first): five of the compounds above
Results for Oc1c(Cl)cc(Cl)c(Cl)c1Cc1c(O)c(Cl)cc(Cl)c1Cl ?
RGS4 inh: inactive; KCNK3 block: inactive; RGS4 act: inactive; SKKanGAS inh: 109*; KCNQ1 inh: inactive; TMEM16A act: -5.5*; ANO1 block: 100*; KCNK9 block: inactive; KCNQ1 act: 87*; HDAC3 inh: -5

How did COc1ccc(OC(=O)CCc2c[nH]c3ccccc23)cc1 do in these assays?
RGS4 inh: inactive; KCNK3 block: inactive; RGS4 act: inactive; SKKanGAS inh: 0; KCNQ1 inh: inactive; TMEM16A act: inactive; ANO1 block: inactive; KCNK9 block: inactive; KCNQ1 act: inactive; HDAC3 inh: 5

What do the screens show for `NC(=O)C1CCCCc2c1[nH]c1ccc(Cl)cc21` (stereo not given)?
RGS4 inh: inactive; KCNK3 block: inactive; RGS4 act: inactive; SKKanGAS inh: 1; KCNQ1 inh: inactive; TMEM16A act: inactive; ANO1 block: inactive; KCNK9 block: inactive; KCNQ1 act: inactive; HDAC3 inh: 4

What do the screens show for `COc1ccc(C(=O)Sc2nncc3ccccc23)cc1`?
RGS4 inh: inactive; KCNK3 block: inactive; RGS4 act: inactive; SKKanGAS inh: -6; KCNQ1 inh: inactive; TMEM16A act: inactive; ANO1 block: inactive; KCNK9 block: inactive; KCNQ1 act: inactive; HDAC3 inh: 2

Results for Nc1ccc(O)c(C(=O)O)c1 ?
RGS4 inh: inactive; RGS4 act: inactive; SKKanGAS inh: 2; KCNQ1 inh: inactive; ANO1 block: inactive; KCNK9 block: inactive; KCNQ1 act: inactive; HDAC3 inh: 0

From PubChem BioAssay

An excerpt. The share of hits here may be higher or lower than overall.
